# Menin MLL FP FL: displaces fluorescein MLL peptide from human menin; Fluorescence polarization, fluorescein-MLL peptide displacement from menin; FP activity change, % at 61.4 µM; 290,000 tested, under 10 active; AID 1766; inconclusive = falling polarisation curve, or a change in total fluorescence; inactive = total fluorescence flat and polarisation flat or rising; no compound was filed as active; the % refers to the polarisation; negative = inhibition;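 note: % of control where 0% means no effect; inhibitors lower the polarisation; unlabelled MLL peptide was the positive control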
# Sfp PPTase inh: inhibitors of Bacillus subtilis Sfp phosphopantetheinyl transferase; 3.5% of 310,000 active; Biochemical Sfp PPTase activity, qHTS; AID 1490; Potency, µM, for the others: max response, negative = inhibition, most hits filed as inhibitors; active = well fitted inhibition curve with a large enough effect; inconclusive = small, poorly fitted or top-dose-only effect, or another doubt; inactive = no such curve, though single readings can be large or run the other way;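 note: the enzyme is Sfp with the accession as filed and its product quenches rhodamine fluorescence; potency is the fitted concentration of half-maximal effect; 0% = enzyme reaction without inhibitor and -100% = no enzyme wells; top concentration of the series not given in the record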
#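 Fluorescence-quenching assay with 15 nM Sfp, 5 uM rhodamine-CoA and 12.5 uM BHQ-2-labelled ybbR peptide in pH 7.6 Hepes/MgCl2 buffer. Enzyme was pre-incubated with compound for 15 min at room temperature. Rate was taken from the 30-min fluorescence change (525/598 nm).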
# D2 ag: agonists of human D2 dopamine receptor (beta-arrestin). activation, % (test concentration not listed). AID 624465. DiscoveRx PathHunter D2 beta-arrestin, luminescence, 90 min; 100% = 57 uM dopamine signal. P14416. 0.084% of 360,000 active; in the data active = activation above about 40%; inconclusive = about 15% to 40%; inactive = below about 15%; note: compound concentration not given in the record; the text of the record calls up to 30% inactive
# Target sequence (P14416 whole entry, looked up): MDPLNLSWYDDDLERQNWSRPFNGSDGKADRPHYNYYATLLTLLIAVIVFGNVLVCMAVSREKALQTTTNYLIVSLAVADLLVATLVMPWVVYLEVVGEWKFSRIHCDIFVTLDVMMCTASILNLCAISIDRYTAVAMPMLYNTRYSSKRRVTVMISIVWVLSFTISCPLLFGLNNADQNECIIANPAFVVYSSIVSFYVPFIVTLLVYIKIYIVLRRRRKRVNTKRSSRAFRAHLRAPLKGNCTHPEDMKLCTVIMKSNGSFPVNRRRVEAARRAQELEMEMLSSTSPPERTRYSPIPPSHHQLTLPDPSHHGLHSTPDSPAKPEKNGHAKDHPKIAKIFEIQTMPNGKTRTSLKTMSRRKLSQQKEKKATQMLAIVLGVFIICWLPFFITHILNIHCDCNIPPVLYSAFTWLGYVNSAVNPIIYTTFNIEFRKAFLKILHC
#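 Agonist mode: compounds alone added to overnight-plated D2 PathHunter cells for 90 min at 37 C, with 57 uM final dopamine (EC100) defining full response. Beta-arrestin recruitment detected by chemiluminescent reagent, read after 1 h at ambient temperature.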
# ClpP mod: qHTS Assay for Activators of ClpP; ATP-dependent Clp protease proteolytic subunit (Bacillus subtilis (strain 168)), P80244; AID 651965, 2013; purified B. subtilis ClpP, FRET peptide cleavage, 20 min; 1.9% of 340,000 active; Potency, µM (titrated, usually from 57.5 µM), inactives show top-dose activity change, negative = active; active = well fitted falling curve with a large enough effect; inconclusive = small, poorly fitted or top-dose-only effect; inactive = no such curve, though single readings can be large or run the other way; note: potency is the fitted concentration of half-maximal effect; the source files actives as falling curves though it sought activators and does not explain the sign; nearly all actives have a fitted effect of over 65% in size; many hits overshoot -100%
# Target sequence (P80244 whole entry, looked up): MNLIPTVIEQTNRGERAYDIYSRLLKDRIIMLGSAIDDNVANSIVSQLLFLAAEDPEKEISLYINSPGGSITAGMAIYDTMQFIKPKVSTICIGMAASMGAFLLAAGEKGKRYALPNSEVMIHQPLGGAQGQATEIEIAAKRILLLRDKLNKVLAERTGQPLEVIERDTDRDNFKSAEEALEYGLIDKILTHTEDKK
#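 Purified B. subtilis ClpP, 10 microg/mL final in Tris/HCl pH8 with KCl, BSA, glycerol and Tween-20, cleaved an Abz/nitrotyrosine-quenched decapeptide. Fluorescence (ex 320, em 430) was read at 0 and 20 min at room temperature. Delta was normalized to 5.8 microM ADEP and DMSO/no-enzyme controls.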
# gsp antag: gsp mutant antagonism. gsp-mutant cells, cAMP HTRF, 30 min; control for the full effect not named in the record. Potency, µM (titrated, usually from 76.9 µM), for inactives: at the top dose activity change, negative = inhibition, usual class: inhibitors. 0.4% of 340,000 active; active = falling curve of any shape with a large fitted effect; inconclusive = falling curve, mostly with a smaller effect; inactive = flat or rising curve; cell line not stated here;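 note: intracellular cAMP measured with PDE inhibitor Ro 20-1724 present during compound exposure; potency is the fitted concentration of half-maximal effect; % is set by controls: 0 for no effect and ±100 for the full control effect; nearly all actives have a fitted effect of over 65% in size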
#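 HTRF cAMP measurement after 30 min RT detection following 30 min, 37C compound treatment alongside […] (added as 300 uM solution) in G418-selected cells seeded at 2000/well and grown 16–24 h.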
# gsp agonist: agonists of gsp mutant (McCune-Albright syndrome); gsp mutant cells, cAMP HTRF, 30 min; control for the full effect not named in the record; Potency, µM (series often up to 76.9 µM), for inactives: at the top dose activation (cAMP increase), actives largely listed as activators; 0.13% of 340,000 active; AID 624287; active = well fitted activation curve with a large enough effect; inconclusive = small, poorly fitted or top-dose-only effect, or another doubt; inactive = no such curve, though single readings can be large or run the other way; cell line not stated here;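 note: phosphodiesterase inhibitor Ro 20-1724 added with compounds to block cAMP breakdown; potency is the fitted concentration of half-maximal effect; nearly all actives have a fitted effect of over 60% in size; about a fifth of the inactives were tested at one dose only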
#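 Cells in DMEM/10% FBS with G418 were pretreated with compounds in DMSO plus […] (300 uM stock) for 30 min at 37C. cAMP was measured by HTRF (cAMP-d2 plus anti-cAMP antibody-K) after 30 min at room temperature.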
# PINK1 modulator: modulators of PINK1 expression | Potency, µM (top dose mostly 76.6 µM), without a hit: at the highest dose activation (PINK1 increase), usual class: activators | PINK1 immunofluorescence, high-content cytometry, 24 h | 0.2% of 410,000 active | AID 624263; active = well fitted activation curve with a large enough effect; inconclusive = small, poorly fitted or top-dose-only effect; inactive = flat fitted curve, though single readings scatter; cell line not stated here;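 note: potency is the fitted concentration of half-maximal effect; % of control where 0% means no effect; nearly all actives have a fitted effect of over 65% in size; a mitochondrial uncoupler was the plate control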
#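 Fluorescence from anti-PINK1 antibody, together with nuclear and cell stains, was scanned on a laser-scanning cytometer. Before staining, stable-line cells were incubated 24 hours with compounds at 5 concentrations; primary antibody 12 h at 10 degrees C.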
# * hit, by the source's call; ? = inconclusive; nt = no result given; & = joins results of further samples; [ ] = remark or other dose.
# Fields – Menin MLL FP FL	Sfp PPTase inh	D2 ag	ClpP mod	gsp antag	gsp agonist	PINK1 modulator
1) COc1cccc(-c2nn(-c3ccc(C)cc3)cc2C(=O)NCC(c2cccs2)N2CCOCC2)c1 (stereo unspecified)
    nt	nt	-0.5	-7.2%	?	-44%[inhibitor]	-0.5%
2) CN(C)c1ccc(/C=N/N=C2/NC(=O)/C(=C/c3ccc([N+](=O)[O-])cc3)S2)cc1
    25	-17%	-2.8	-5.0%	0%	?	1.6%
3) O=C(Nc1ccc(Cl)cc1F)C1CC1c1ccccc1 (stereo unspecified)
    4.6	13%	-4.6	nt	-2%	-10%	1.8%
4) CCCn1c(C)cc(C(=O)CSc2nc3ccccc3c(=O)n2Cc2ccco2)c1C
    -3.2	-12%	-4.9	-6.2%	-10%	-8%[15.4 µM]	-0.4%
5) O=C(NCc1ccc2c(c1)OCO2)c1cccnc1Cl
    6.1	-10%	9.8	0.8%	4%	-6%	1.0%
6) COc1ccc(C)cc1NC(=O)CCN1CC(C)OC(C)C1 (stereo unspecified)
    -0.6	11%	3.0	nt	11%	26%	2.8%
7) CN1CCN(Cc2cccc(Oc3ccccc3)c2)CC1
    2.1	-1%	-0.7	0.9%	4%	0%	-0.9%[38.3 µM]
8) O=C(Nc1cccc(-c2cn3cccnc3n2)c1)c1ccc(Br)o1
    0.6	-5%	-0.2	3.5µM*	-3%	3%	-3.6%[38.3 µM]
9) NC(Cc1cnc[nH]1)c1csc(Nc2ccc(C(F)(F)F)cn2)n1 (stereo unspecified)
    nt	nt	4.8	0.5%	nt	nt	0.3%
10) O=C(NCc1ccco1)C1c2ccccc2Oc2ccccc21
    2.7	40µM*	-0.6	1.0%	-5%	-16%	12%
11) COC(=O)C1=C(C(=O)OC)[C@@H]2N(C)c3ccccc3[C@@]23C[C@@H](CO)N=C3N1
    1.5[11.7 µM]	17%	-2.0	-0.8%	1%	nt	0.0%
12) Fc1ccccc1-c1nc(NCc2ccco2)c2ccccc2n1
    -4.4	-3%	-3.8	nt	-4%	-4%[15.4 µM]	1.9%
13) Cc1c(N/C=C/C(=O)C(F)(F)F)c(=O)n(-c2ccccc2)n1C
    -3.2	8%	-2.4	nt	-5%	?	1.4%
14) Cc1ccc(-c2nnc(N3CCCCC3)c3ccccc23)cc1S(=O)(=O)N(C)C
    ?	-18%	-0.8	0.8%	-10%	-33%[inhibitor]	nt
15) COc1ccc(CNC(=O)c2ccc(CS(=O)(=O)Cc3ccccc3F)o2)cc1
    6.2	16%	-5.1	0.9%	-10%	2%	1.1%
16) COc1cc(C2C(=O)c3ccccc3C2=O)ccc1O
    ?	-17%	3.9	-8.1%	-1%	24%	4.5%
17) Cc1noc(C)c1CCC(=O)NC1CCCN(Cc2ccc(Cl)cc2)C1 (stereo unspecified)
    nt	2%	-5.6	-3.8%	6%	?	-1.3%
18) O=c1[nH]c2ccc(S(=O)(=O)N3CCN(C4CCCCC4)CC3)cc2[nH]c1=O
    2.6	24%	1.3	28µM*	8%	3%	6.9%[38.3 µM]
19) S=C(NCc1ccccc1)NCc1ccc2c(c1)OCO2
    5.9	0%	-3.9	-0.5%	8%	11%[15.4 µM]	-1.7%
20) COc1ccc(S(=O)(=O)N(C)c2ccc(C(=O)NCC3CCCO3)cc2)cc1OC (stereo unspecified)
    nt	16%	1.1	-0.7%	6%	13%[15.4 µM]	-1.0%
21) COc1ccc(C(=O)N/N=C\c2coc3ccccc3c2=O)cc1
    2.2	11%	-7.0	45%	-2%	19%	2.4%
22) CC(C)c1ccc(S(=O)(=O)N(C)C2(C)CCS(=O)(=O)C2)cc1 (stereo unspecified)
    nt	nt	-2.8	nt	15%	16%[15.4 µM]	0.3%
23) Cc1cccc(N2C(=O)CC(N3CCN(c4cccc(C(F)(F)F)c4)CC3)C2=O)c1 (stereo unspecified)
    1.4	14%	-3.8	-1.9%	2%	-34%	17%[38.3 µM]
24) CCNC(=O)CC1C(=O)N(c2ccc(F)cc2)C(=O)N1CCc1ccc(OC)cc1 (stereo unspecified)
    -1.4	12%	0.0	0.4%	-3%	24%	-5.5%[38.3 µM]
25) COc1ccccc1N1C(=O)Cc2ccccc2C1=O
    4.8	-13%	2.5	nt	2%	1%	-1.0%
26) Cc1ccc(S(=O)(=O)CCC(=O)Oc2ccc3c(C)cc(=O)oc3c2)cc1
    nt	nt	0.5	-2.6%	-2%	-3%[15.4 µM]	-0.2%
27) CC(=O)N1CCN(c2ccc(NC(=O)c3ccc(Br)o3)cc2Cl)CC1
    1.5	-1%	2.5	1.8%	-26%	20%	-0.2%
28) Cc1cc(NC(=O)CCC(=O)N(CC(=O)NC2CCCC2)c2ccc3c(c2)OCCO3)no1
    0.8	12%	-3.7	2.0%	8%	0%	6.0%
29) COC(=O)c1ccccc1OCc1cc(=O)oc2ccc(C)cc12
    nt	nt	-2.2	-6.6%	nt	nt	3.7%
30) C/C(=N\NC(N)=S)C1C2C3CC4C5CC(C42)C1C53 (stereo unspecified)
    1.0	9%	5.2	nt	15%	13%	-0.2%
31) O=C(CSc1nnc(-c2ccccc2)n1-c1ccc(Cl)cc1)N/N=C/c1ccccc1C(=O)O
    0.7	-17%	2.1	0.0%	-20%	-20%	0.2%
32) COc1cc(CNc2ncn[nH]2)ccc1OCC(=O)NC(C)(C)C
    0.3	-12%	-2.4	2.8%	9%	-1%[15.4 µM]	-1.2%
33) COc1ccccc1-c1nccc(NCc2cccnc2)n1
    2.0	?	nt	nt	nt	nt	0.1%
34) CC(C)[C@H](NC(N)=O)C(=O)Nc1cccc(S(=O)(=O)N2CCOCC2)c1
    -0.3	-22%	1.1	nt	5%	16%	1.0%
35) Cc1c([N+](=O)[O-])cc(C(=O)Oc2ccc(Br)cc2C(=S)N2CCCCC2)cc1[N+](=O)[O-]
    -0.4	2%	-4.7	-4.8%	-9%	5%	-0.7%
36) O=C(c1ccccc1NS(=O)(=O)c1ccc(Br)s1)N1CCOCC1
    -1.8	11%	0.3	0.3%	-10%	?	-3.1%[38.3 µM]
37) CCc1sc(C(=O)Nc2cccc(C(C)=O)c2)cc1C
    -0.2	5%	-1.5	-2.0%	-17%	-19%	0.6%
38) C/C(CC(=O)Nc1ccc(C)c(Cl)c1)=N\NC(=O)Cc1cnc(N)s1
    -1.6	4%	3.7	1.3%	-3%	-10%	3.9%
39) S=C(NCC(c1ccco1)N1CCCC1)Nc1ccccc1 (stereo unspecified)
    1.9	14%	-3.1	nt	3%	2%	-0.9%
40) O=C(NC1CCN(Cc2ccccc2)CC1)c1cc(S(=O)(=O)N2CCOCC2)ccc1Cl
    nt	nt	-4.0	-1.4%	50µM*	21%	3.9%
41) COCCNC(=O)[C@@]1(Cc2ccccc2)C=C[C@@H](C)N1C(C)=O
    3.1&-0.5	-5%&14%	-1.7	-0.5%	11%	?	0.3%
42) CCOC(=O)N1CCN(C(=O)c2ccc3nc(-c4ccccc4)c(-c4ccccc4)nc3c2)CC1
    nt	-14%	1.8	4.0%	-19%	?	-1.9%
43) Cc1cc(S(=O)(=O)N2CCN=C2c2ccccc2)ccc1F
    0.8	14%	-2.8	-1.1%	-12%	-3%	0.2%[38.3 µM]
44) O=C(CC(=O)N/N=C/c1c(F)cccc1Cl)NCCc1ccccc1
    -9.3	4%	-3.0	0.8%	-10%	-18%	-1.1%
45) Cc1ccc(NC(=O)COC(=O)CN2C(=O)C3CCCCC3C2=O)cc1S(=O)(=O)N1CCOCC1 (stereo unspecified)
    -1.5	5%	1.6	-2.3%	-9%	-1%	-0.5%
46) COc1ccccc1C(=O)OCC(=O)NC(C)CCc1ccccc1 (stereo unspecified)
    -12	3%	-2.1	nt	9%	-3%	5.4%
47) Cc1nc2ccccc2nc1Nc1cccc(Cl)c1
    2.7	-2%	-11	-4.9%	-1%	23%	-2.4%
48) C=CCn1c(SCC(=O)c2cccs2)nc2sc(C)cc2c1=O
    2.9	6%	-2.2	-0.2%	-8%	24%	0.5%
49) C=CCN1C(=O)c2ccccc2Sc2ccc(C(=O)NCC(OC)OC)cc21
    -16	0%	4.3	1.4%	10%	?	-0.9%
50) COCCNC(=O)c1cnn2c(C(F)F)cc(-c3ccccc3)nc12
    -0.7	10%	-2.4	nt	3%	10%[15.4 µM]	-1.6%
51) Cc1nn(CC(=O)Nc2ccc(Cl)c(S(=O)(=O)N(C)C)c2)c(C)c1[N+](=O)[O-]
    8.0	-17%	0.2	0.5%	-6%	-3%	4.7%
52) Cc1cccc(C2CN(C)CCc3c2cc(O)c(O)c3Cl)c1 (stereo unspecified)
    -0.3	nt	5.6	1.4%	-2%	nt	1.8%
53) CNC(=O)C[C@H]1C(=O)N(C2CCCCC2)C[C@@H]1c1ccc(Br)cc1
    nt	nt	-1.0	0.6%	nt	-98%	-1.3%
54) Cc1cc(C)c2cc(C(=O)N3CCC(Cc4ccccc4)CC3)[nH]c2c1
    -1.8	7%	-1.8	nt	6%	-2%[15.4 µM]	3.2%
55) CCC1CCCCN1C(=O)COC(=O)COc1ccc(Br)cc1 (stereo unspecified)
    nt	nt	13	0.2%	-1%	9%	-0.8%
56) O=C(NCc1ccc(F)cc1)C(=O)NCC(c1ccco1)N1CCOCC1 (stereo unspecified)
    -1.5	23%	2.2	-2.0%	4%	11%	-0.7%
57) COc1ccccc1-c1nnc(NC(=O)OCC(C)C)s1
    3.6	11%	1.4	-27%	6%	-1%	-1.0%
58) Cc1cc(N2CCN(C)CC2)nc2ccc(NC(=O)c3ccc4c(c3)OCO4)cc12
    3.4	-1%	-3.9	-16%	9%	1%	3.7%
59) CCOc1ccc(C(C)=O)cc1CN1C(=O)NC2(CCCCCC2)C1=O
    -2.5	-6%	3.5	nt	4%	?	-1.0%
60) CC(=O)c1csc(COc2ccccc2)n1
    4.9	0%	-2.4	-0.6%	8%	?	-0.2%
61) CCCN(C(=O)c1c(CC)noc1C)c1c(N)n(Cc2ccccc2)c(=O)[nH]c1=O
    nt	nt	-1.0	nt	-5%	20%[15.4 µM]	-2.0%

# Screening data from PubChem.
